# Bioassay records: PubChem, National Center for Advancing Translational Sciences (NCATS)
# TRPV1 PAM: human TRPV1 potentiation; Q8NER1; TRPV1-expressing cells, Fluo-8 calcium influx, capsaicin EC20 potentiation; host cell line not named in the record; control for the full effect not named in the record; potentiation, % at 8.33 µM; 320,000 tested, 0.02% active; active means potentiation above 80%; inconclusive means 30% to 80%; inactive means below 30%; note: 0% is about no effect
# Target sequence (Q8NER1 whole entry, looked up): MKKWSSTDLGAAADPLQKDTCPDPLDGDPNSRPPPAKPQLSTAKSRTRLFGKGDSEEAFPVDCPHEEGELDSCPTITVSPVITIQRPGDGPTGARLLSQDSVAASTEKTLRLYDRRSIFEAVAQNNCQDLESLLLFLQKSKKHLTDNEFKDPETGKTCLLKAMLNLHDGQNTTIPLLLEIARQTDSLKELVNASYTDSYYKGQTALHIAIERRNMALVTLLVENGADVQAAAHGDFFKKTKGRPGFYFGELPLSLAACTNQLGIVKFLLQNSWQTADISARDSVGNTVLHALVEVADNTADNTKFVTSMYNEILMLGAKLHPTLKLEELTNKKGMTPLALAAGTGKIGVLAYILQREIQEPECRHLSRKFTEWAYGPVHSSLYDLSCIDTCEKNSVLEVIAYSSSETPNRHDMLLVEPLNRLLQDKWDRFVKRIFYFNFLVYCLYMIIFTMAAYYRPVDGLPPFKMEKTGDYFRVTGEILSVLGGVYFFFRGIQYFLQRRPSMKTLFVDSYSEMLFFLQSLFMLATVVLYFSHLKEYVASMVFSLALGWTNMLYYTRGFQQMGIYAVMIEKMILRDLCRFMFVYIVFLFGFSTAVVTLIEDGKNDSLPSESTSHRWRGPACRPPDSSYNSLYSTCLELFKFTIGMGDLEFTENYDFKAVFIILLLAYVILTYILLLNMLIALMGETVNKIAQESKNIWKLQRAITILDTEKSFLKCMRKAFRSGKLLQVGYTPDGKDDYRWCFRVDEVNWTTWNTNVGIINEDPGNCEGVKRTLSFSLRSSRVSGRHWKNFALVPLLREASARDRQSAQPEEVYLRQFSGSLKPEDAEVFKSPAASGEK
#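 TRPV1-expressing cells were cultured overnight at 35.5C and loaded with Fluo-8 calcium dye for 40 to 90 min at room temperature. After a 10 s baseline, compound was added and calcium influx was read kinetically for 3 min (ex 480/em 520 nm).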
# CtBP-E1A blk: blocks the CtBP interaction with E1A; AlphaScreen GST-E1A/His-CtBP binding, 1536-well; active compounds read low; control for the full effect not named in the record; activity change, % (concentration not given with the values); 340,000 tested, 0.49% active; in the data active means activity change below about -65%; inconclusive means about -30% to -65%; inactive means above about -30%; note: % is set by controls: 0 for no effect and ±100 for the full control effect
#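 Homogeneous bead-based format: GST-tagged E1A captured on glutathione donor beads, His-tagged CtBP on nickel acceptor beads; compounds precede bead addition by 2 h at 37 °C.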
# D2 ag: human D2 receptor agonism in beta-arrestin assay. P14416. DiscoveRx PathHunter D2 beta-arrestin, luminescence, 90 min; 100% = 57 uM dopamine signal. activation, % (concentration not given with the values). 360,000 tested, 0.084% active. AID 624465; in the data active = activation above about 40%; inconclusive = about 15% to 40%; inactive = below about 15%; note: compound concentration not given in the record; the text of the record calls up to 30% inactive
#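 DiscoveRx PathHunter D2 beta-arrestin cells (2,100/well) attached overnight, then compound-stimulated 90 min at 37 C in HBSS/10 mM HEPES/0.1% Tween-20 buffer; beta-galactosidase complementation read by luminescence after 1 h at ambient temperature. Dopamine 57 uM final (EC100) as control.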
# D2 PAM: human D2 receptor positive allosteric modulation; 360,000 tested, 0.23% active; DiscoveRx D2 beta-arrestin cells, luminescence, 90 min; 100% = 57 uM dopamine signal; potentiation, % (concentration not given with the values); active = potentiation of 50% or more; inconclusive = 30% to 50%; inactive = 30% or less;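 note: compound concentration not given in the record; tested on top of an EC20 dose of dopamine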
#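 PathHunter beta-arrestin assay in DiscoveRx D2 cells. Compounds were added with an EC20 of dopamine (50 nM final) for 90 min at 37 deg C. Luminescence was read 1 h after detection reagent, with 57 uM dopamine as the EC100 control.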
# Sfp PPTase inh: inhibitors of Bacillus subtilis Sfp phosphopantetheinyl transferase | Q9F4F7 | Biochemical Sfp PPTase activity, qHTS | Potency, µM, inactives show max response, negative = inhibition, most hits filed as inhibitors | 310,000 tested, 3.5% active | AID 1490; active = well fitted inhibition curve with a large enough effect; inconclusive = small, poorly fitted or top-dose-only effect, or another doubt; inactive = no such curve, though single readings can be large or run the other way;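 note: the enzyme is Sfp with the accession as filed and its product quenches rhodamine fluorescence; potency is the fitted concentration of half-maximal effect; 0% = enzyme reaction without inhibitor and -100% = no enzyme wells; top concentration of the series not given in the record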
#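 With Hepes-Na pH 7.6 buffer containing 10 mM MgCl2, Sfp (15 nM) modified BHQ-2-YbbR (12.5 uM) using rhodamine-CoA (5 uM). Two reads 30 minutes apart at 525/598 nm yielded each well's rate.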
# Six1-Eya2 blk: Six1/Eya2 interaction inhibition; Q15475+O00167; AlphaScreen GST-Six1/His-Eya2 binding, biochemical; active compounds read low; control for the full effect not named in the record; activity change, % (no concentration beside the values); 360,000 tested, 0.56% active; in the data active = activity change below about -65%; inconclusive = about -30% to -65%; inactive = above about -30%; note: % is set by controls: 0 for no effect and ±100 for the full control effect
#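 Six1/Eya2 binding was read as AlphaScreen signal after compounds were pinned into GST-Six1 plus His-tagged Eya2 (5X stock 250/500 nM) in pH 8.0 Tris/NaCl/TCEP buffer, beads added, then incubated 1 h, 37 C, dark.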
# PINK1 expr mod: changes PINK1 expression | Potency, µM (top dose mostly 76.6 µM), without a hit: at the highest dose activation (PINK1 increase), most hits filed as activators | 410,000 tested, 0.2% active | PINK1 immunofluorescence, high-content cytometry, 24 h; active = well fitted activation curve with a large enough effect; inconclusive = small, poorly fitted or top-dose-only effect; inactive = flat fitted curve, though single readings scatter; cell line not stated here;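 note: potency is the fitted concentration of half-maximal effect; % of control where 0% means no effect; nearly all actives have a fitted effect of over 65% in size; a mitochondrial uncoupler was the plate control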
#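 PINK1 protein, normally rapidly degraded, was detected by immunofluorescence after 24 hour compound treatment of a stable cell line. Titration data (5 concentrations) came from laser-scanning cytometry, with CCCP-treated wells as controls.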
# The depositor's hits bear a star; ? = inconclusive; / = not tested or not shown; [ ] = another dose, or the depositor's remark.
1. CN1CCN(/C(=N\S(=O)(=O)c2ccc(F)cc2)c2ccccc2)CC1
2. CCO[C@H]1OC(C(=O)NCc2nc3ccccc3[nH]2)=C[C@@H](C2CC2)[C@@H]1CCCO
3. Cc1ccc(CNC(=O)CCS(=O)(=O)c2ccc(Br)cc2)cc1
4. N#Cc1cccnc1Nc1ccc(Cl)cc1
5. COc1cc(C2(c3ccc(O)c(OC)c3)C(=O)Nc3c(C)cc(Br)cc32)ccc1O

Compound	1	2	3	4	5
TRPV1 PAM	-0.4	20.4	-15.0	7.2	/
CtBP-E1A blk	-0.5	-0.3	18.2	8.3	-2.5
D2 ag	2.1	-2.7	2.5	-5.0	1.8
D2 PAM	-5.1	-23.2	-3.3	-4.3	-3.3
Sfp PPTase inh	2.7%	18.8%	21.5%	16.7%	/
Six1-Eya2 blk	11.2	-2.3	?	21.4	-2.5
PINK1 expr mod	-2.4%	7.5%	2.7%	2.2%	10.2%

6. O=C(Nc1ccc(N2CCN(C(=O)c3cccs3)CC2)cc1)c1ccccc1Cl
7. S=c1[nH]nc(-c2cccs2)n1/N=C/c1c(Cl)cccc1Cl
8. O=C(c1cccnc1)N(Cc1ccccc1)C1(C(=O)Nc2ccccc2)CCCCC1
9. CCCCC[C@H](C)N1C[C@@H](COCc2ccccc2)Oc2cc(N3CCC[C@H]3CO)ccc2S1(=O)=O
10. COCCCNC(=O)[C@H](Cc1ccccc1)NC(=O)CC[C@H]1O[C@@H](n2ccc(=O)[nH]c2=O)[C@H](O)[C@@H]1O

Compound	6	7	8	9	10
TRPV1 PAM	10.3	10.9	-7.6	/	/
CtBP-E1A blk	0.0	11.3	8.1	-3.3	7.7
D2 ag	6.3	-0.2	0.2	/	-0.4
D2 PAM	-4.1	0.3	-4.0	/	-2.1
Sfp PPTase inh	-5.0%	-59.5%	20.9%	/	/
Six1-Eya2 blk	5.7	-21.0	7.5	-13.4	3.1
PINK1 expr mod	2.9%	1.5%	-2.0%	2.2%	2.1%

11. COc1ccccc1N(Cc1cc2ccc(C)cc2[nH]c1=O)C(C)=O
12. COc1ccc(C(C(=O)OC(C)CN(C)C)c2ccccc2)cc1 (centres undefined)
13. Cc1ccc(/C=C2/NC(=O)[C@H](C)NC2=O)cc1
14. CC(=O)Nc1ccc(C(=O)NC2CCCC2)cc1
15. O=C(Nc1nnc(-c2ccccc2)o1)c1cccc(S(=O)(=O)N2CCOCC2)c1

Compound	11	12	13	14	15
TRPV1 PAM	2.3	-24.2	8.1	7.9	/
CtBP-E1A blk	1.4	8.1	-0.1	2.0	-19.1
D2 ag	-2.8	-0.2	3.1	-2.4	-1.8
D2 PAM	0.3	-50.2	-1.5	-9.3	20.8
Sfp PPTase inh	5.2%	8.4%	14.1%	17.5%	/
Six1-Eya2 blk	1.4	1.5	0.1	2.7	?
PINK1 expr mod	0.0%	4.7%	8.4%	1.2%	3.4%

16. CCN(CC)C(=O)Cc1c(OC)ccc2cc(Br)ccc12
17. Cc1ccccc1CS(=O)(=O)Cc1ccc(C(=O)NCCCN2CC(C)CC(C)C2)o1 (centres undefined)
18. CCCCNc1c(-c2cccc(-c3cc(C(C)=O)cs3)c2)nc2ccc(C)cn12
19. CN1CCN(CC(=O)O)CC1
20. CCn1nnc(-c2ccccc2NS(=O)(=O)c2ccc(S(=O)(=O)N(C)C3CCCCC3)cc2)n1

Compound	16	17	18	19	20
TRPV1 PAM	-4.9	-7.8	16.4	-1.2	11.3
CtBP-E1A blk	11.0	-0.3	-28.9	5.3	0.2
D2 ag	-1.6	-2.9	?	-1.1	-0.8
D2 PAM	-17.7	-10.3	?	0.8	7.6
Sfp PPTase inh	-11.7%	16.9%	/	-17.6%	4.0%
Six1-Eya2 blk	-4.9	3.0	-22.6	3.1	9.6
PINK1 expr mod	-0.9%	0.7%	0.6%	3.0%[38.3 µM]	0.5%

21. CC1CC(C)(C)N(C(=O)CSc2ccc(-c3ccc(F)cc3)nn2)c2ccccc21 (centres undefined)
22. C/C=C/c1ccccc1OCc1ccc(C(=O)OC)o1
23. Cn1c(-c2ccccc2)c(CCO)c2ccccc21
24. COc1cccc(/C=C/C(=O)OCC(=O)NCC2CCCCC2)c1OC
25. c1coc(-c2nc3nc4ccccc4n3nc2-c2ccco2)c1

Compound	21	22	23	24	25
TRPV1 PAM	-3.6	23.1	2.4	-24.9	-24.5
CtBP-E1A blk	6.8	-2.7	-11.8	6.6	-6.5
D2 ag	-0.8	-2.0	0.6	2.4	1.3
D2 PAM	-0.1	-2.1	3.8	0.9	23.6
Sfp PPTase inh	9.9%	13.3%	-22.0%	/	39.8µM*
Six1-Eya2 blk	-2.8	9.7	-21.5	2.0	-7.7
PINK1 expr mod	/	8.4%	-0.2%	2.2%	20.9%

26. COc1ccc(N2CCN(CC(=O)NC(=O)NCc3ccccc3)CC2)cc1
27. Cc1ccc(/C(N)=N/OC(=O)c2ccc3ccccc3c2)cc1
28. COC(=O)CCc1sc(Nc2ccccc2)nc1-c1ccc(OC)cc1
29. N#Cc1ccccc1CN1C(=O)S/C(=C/c2cccn2-c2ccc(C(=O)O)cc2)C1=O
30. COc1ccc(-c2cc(=O)oc3cc(OCC(C)=O)ccc23)cc1

Compound	26	27	28	29	30
TRPV1 PAM	6.4	6.8	-2.5	0.9	-7.7
CtBP-E1A blk	-3.3	8.1	-26.3	-1.1	1.4
D2 ag	-0.5	10.8	-0.5	-3.1	-0.4
D2 PAM	-7.8	19.9	-21.3	-10.4	-24.4
Sfp PPTase inh	/	15.3%	1.4%	-8.1%	-6.3%
Six1-Eya2 blk	3.4	12.0	-11.6	?	1.4
PINK1 expr mod	3.9%	4.5%	1.4%	6.9%	1.0%

# Just CtBP-E1A blk, D2 ag and TRPV1 PAM, for 4 of the compounds above:
nr | canonical_smiles | CtBP-E1A blk | D2 ag | TRPV1 PAM
27 | Cc1ccc(/C(N)=N/OC(=O)c2ccc3ccccc3c2)cc1 | 8.1 | 10.8 | 6.8
28 | COC(=O)CCc1sc(Nc2ccccc2)nc1-c1ccc(OC)cc1 | -26.3 | -0.5 | -2.5
29 | N#Cc1ccccc1CN1C(=O)S/C(=C/c2cccn2-c2ccc(C(=O)O)cc2)C1=O | -1.1 | -3.1 | 0.9
30 | COc1ccc(-c2cc(=O)oc3cc(OCC(C)=O)ccc23)cc1 | 1.4 | -0.4 | -7.7

# Other records follow.
31. CN1CCN(C(=O)c2cc([N+](=O)[O-])ccc2Cl)CC1
32. CCCS(=O)(=O)NC(=O)C1(C)CCN(C(=O)c2cc(OC)c(OC)c(OC)c2)C1 (centres undefined)
33. C=CCNC(=O)c1ccccc1NC(=O)COc1ccccc1
34. COC(=O)C1=C(N)N(c2ccccc2F)C2=C(C(=O)CC(C)(C)C2)C1c1ccc(OC)c(OC)c1 (centres undefined)
35. O=C(c1ccncc1)N1N=C(c2ccc(Br)cc2)CC1c1ccccc1O (centres undefined)

Compound	31	32	33	34	35
TRPV1 PAM	-14.7	/	13.8	-6.0	-6.7
CtBP-E1A blk	4.7	1.6	0.4	5.5	-8.1
D2 ag	0.6	-1.8	-2.1	-3.0	-3.7
D2 PAM	4.7	-9.2	-5.8	-29.3	-12.9
Sfp PPTase inh	6.6%	/	-2.2%	5.0%	-70.0%
Six1-Eya2 blk	5.3	5.0	7.3	-2.0	-18.3
PINK1 expr mod	-1.3%	-0.8%	0.3%	-0.9%	2.2%

36. CCOc1cccc(NC(=O)C2CC(=O)NC(=Nc3ccccc3)S2)c1 (centres undefined)
37. CN(C)CCN(C(=O)c1ccc(S(=O)(=O)N(C)C)cc1)c1nc2cc3c(cc2s1)OCCO3
38. CC(C)c1ccc(NC2CCCN(C(=O)CCN3CCCC3=O)C2)cc1 (centres undefined)
39. Cc1ccc(C(=O)O)cc1NC(=S)NC(=O)c1ccc(-c2ccc(Cl)cc2)o1
40. CC1CCc2sc(C(=O)N/N=C/c3ccc([N+](=O)[O-])cc3)cc2C1 (centres undefined)

Compound	36	37	38	39	40
TRPV1 PAM	7.2	?	-11.7	18.1	8.4
CtBP-E1A blk	-1.8	/	0.5	1.5	5.3
D2 ag	-3.7	-2.0	-4.8	-4.1	-0.8
D2 PAM	-33.8	-2.9	-20.4	-10.1	-11.5
Sfp PPTase inh	5.2%	-5.7%	7.5%	50.1µM*	6.5%
Six1-Eya2 blk	3.5	3.8	3.2	2.3	4.4
PINK1 expr mod	-3.7%	0.3%	0.8%	4.9%	-0.8%

41. Cc1cccc(C2C3=C(CCCC3=O)N=C3c4ccccc4C(=O)C32)c1 (centres undefined)
42. CC1=CN2C(=N)/C(=C/c3cn(CCCOc4ccccc4C)c4ccccc34)C(=O)N=C2S1
43. CC(C)c1cc(C(F)(F)F)n2nc(C(=O)Nc3ccc(-n4cnnn4)cc3)cc2n1
44. O=c1[nH]cccc1-c1nc2ccccc2n1Cc1ccc(Cl)cc1
45. Cc1cc(C)n(CCc2nc3c4ccccc4n(CC#N)c(=O)n3n2)n1

Compound	41	42	43	44	45
TRPV1 PAM	-11.8	6.2	-9.4	5.4	10.4
CtBP-E1A blk	-29.3	0.4	4.8	/	11.8
D2 ag	-6.2	-1.8	-1.8	-4.0	-4.6
D2 PAM	-13.1	8.7	4.1	-6.0	-4.7
Sfp PPTase inh	?	-2.9%	12.7%	3.0%	-1.1%
Six1-Eya2 blk	-24.1	-2.7	3.9	-0.5	-0.6
PINK1 expr mod	10.7%	3.5%	-0.2%	1.8%	-3.4%

46. Cc1c(NC(=O)C2CCCNC2=O)c(=O)n(-c2ccccc2)n1C (centres undefined)
47. S=C(NCc1ccccc1)N1CCn2cccc2C1c1cccnc1 (centres undefined)
48. COc1ccc(NC(=O)c2n[nH]c(=O)c3ccccc23)cc1S(=O)(=O)N1CCCCC1
49. CC(C)C(=O)Nc1nnc(SCC(=O)Nc2ccc3c(c2)OCCO3)s1
50. O=C(CN1CCC(O)(c2ccc(F)cc2)CC1)NCc1ccc(F)cc1
51. Cc1cc2c(cc1C)N(CC(=O)N1CCCC1)C(=O)CC(c1ccccc1)=N2
52. Oc1ccc(Cl)cc1C1=NNC(c2cccs2)C1 (centres undefined)

Compound	46	47	48	49	50	51	52
TRPV1 PAM	-21.4	-12.5	-7.8	-1.8	-11.7	1.0	17.1
CtBP-E1A blk	-1.4	-3.5	?	0.5	6.0	-1.9	-5.2
D2 ag	-2.3	-1.6	0.4	-1.3	-1.5	-3.1	-2.5
D2 PAM	5.2	-9.3	1.7	-2.0	-22.6	-7.3	-10.2
Sfp PPTase inh	16.9%	6.8%	16.0%	6.7%	7.3%	-3.8%	-19.5%
Six1-Eya2 blk	1.9	-6.3	-24.1	3.8	2.3	-8.0	-6.0
PINK1 expr mod	0.7%	-0.6%	10.8%	1.1%	/	-0.5%	4.5%
